Screening results deposited in PubChem by National Center for Advancing Translational Sciences (NCATS).
SmPrx2 inh – inhibitors of Schistosoma mansoni peroxiredoxin 2. S. mansoni Prx2 activity coupled to TGR/GSH (TGR is thioredoxin glutathione reductase), NADPH fluorescence loss, qHTS; some inactives read as strong as hits. Potency, µM. 65,000 compounds, 0.07% hits. AID 448; active means full or partial inhibition curve with a strong effect at the top dose; inconclusive means weaker partial or single-point curve; inactive means no accepted curve; further: series up to 57 µM; many of its hits are not listed in these tables
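qHTS, coupled TGR/Prx2 format; 15 min compound preincubation at RT; reaction started with H2O2 (2.5 mM aliquot); kinetic NADPH fluorescence decrease, ex 365/em 450 nm.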
LT uptake inh – blocks cellular internalization of anthrax lethal toxin | Cells, anthrax lethal toxin internalization, FRET ratio (460/530) | Potency, µM (doses to about 40 µM), inactives show at the highest dose activity change, negative = inhibition, actives largely listed as inhibitors | 70,000 compounds, 0.67% hits | AID 912; active = well fitted falling ratio curve with the 530 nm signal flat; inconclusive = other ratio curves, or a change in one channel alone; inactive = flat curves in the ratio and both channels; the % refers to the ratio; further: on the % scale 0 is the no-effect control and ±100 the full control effect; nearly all actives have a fitted effect of over 50% in size; tested in ME-180 cells; beta-lactamase reporter
* marks the source's active call; other numbers are inactive results; u = inconclusive; x = not tested or not shown; & = joins results of further samples; [ ] = another dose, or the depositor's remark. Potency means the concentration at half of the fitted maximal effect. This is a subset; the hit share may differ from the screen's.

structure | LT uptake inh | SmPrx2 inh
Cn1c(C(=O)N2CCN(C(=O)c3ccco3)CC2)cc2c(=O)n3ccccc3nc21 | 29% | >57
CCCC(=O)N(c1ccc(OC)cc1)C1C=CS(=O)(=O)C1 (stereo not given) | -1% | >57
CC(C(=O)N1CC2(C)CC1CC(C)(C)C2)N1C(=O)c2ccccc2C1=O (stereo not given) | -2% | x
COc1cc(NC(=O)c2ccc(Br)o2)c(C(=O)O)cc1OC | -4% | >57
O=C(O)c1ccc(CSc2nnnn2C2CCCCC2)cc1 | -7% | >57
Cc1cc(C)nc(SCC(=O)NC2=NC(=O)C(C)S2)n1 (stereo not given) | 0% | >57
c1cncc(-c2nnc(SCCSc3nnc(-c4cccnc4)o3)o2)c1 | 4% | >57
Cn1c(C2CCCN2C(=O)OC(C)(C)C)n[nH]c1=S (stereo not given) | -1% | >57
Oc1cc(Cl)cc(Cl)c1 | -4% | x
CCOC(=O)C1CCN(c2cc(=O)n(-c3ccccc3Cl)c(=O)[nH]2)CC1 | -7% | >57
COCCOC(=O)C1=C(C)NC(C)=C(C(=O)OC(C)C)[C@@H]1c1cccc([N+](=O)[O-])c1 | u | >57&>26
CCn1c(Cc2ccccc2)nnc1SCC(=O)NC(C)(C)C | 6% | >57
COc1ccccc1CNC(=O)C1COc2ccccc2O1 (stereo not given) | -19% | x
CCC(=O)N1C(=O)CCN(C(C)=O)c2ccccc21 | 0% | >57
FC(F)(F)c1ccccc1-c1cncnc1-n1ccnc1 | 7% | >57
CC(C)C(NC(=O)c1ccccc1)C(=O)NCc1ccccn1 (stereo not given) | 5% | >57
CC1(C)CN=C(Nc2ccccc2C(F)(F)F)S1 | -4% | >57
O=S(=O)(O)C1CCNCC1 | -2% | >57
CC(=O)Nc1ccc(C(=O)CS(=O)(=O)c2ccc(C)cc2)cc1 | -9% | >57
COc1ccc(OC)c(NC(=O)CCN2CC(C)OC(C)C2)c1 (stereo not given) | 16% | >57
CCOC(=O)N1CCC(NC(=O)c2cnn3cccnc23)CC1 | 2% | >57
COc1ccc(N(CC(=O)Nc2ccc3c(c2)OCO3)S(=O)(=O)c2c(C)nn(C)c2C)cc1 | -12% | >57
O=c1[nH]c2cc3c(cc2cc1C(c1nnnn1Cc1ccccc1)N1CCCc2ccccc21)OCO3 (stereo not given) | -10% | >57
Cc1ccc2[nH]c3c(c2c1)CN(C(=O)CN1CCN(c2cccc(C)c2C)CC1)CC3 | u | x
CC1CCCc2sc3nc(NCc4ccco4)n4ncnc4c3c21 (stereo not given) | u | >57
O=C(N1CCCCCC1)N1CCN(S(=O)(=O)N2CCOCC2)CC1 | -12% | >57
Cc1cccc(C)c1NC(=O)C1(N(Cc2ccco2)C(=O)CC2NC(=O)NC2=O)CCCCC1 (stereo not given) | u | >57
COc1ccccc1N1CCN(CCN2C(=O)CC3(CCCC3)CC2=O)CC1 | -12%&2% | >57&>26
CN1CCCC2(CCN(C(=O)c3ccncc3)CC2)C1 | u | >57
Cc1onc(-c2ccccc2)c1C(=O)Nc1nnc(-c2ccncc2)s1 | 5% | >57
COCC(C)NS(=O)(=O)c1ccc(OC)cc1 (stereo not given) | -3% | x
Cn1c(=O)c2ncn(CC(=O)NCCOc3ccc(C(C)(C)C)cc3)c2n(C)c1=O | 2% | >57
Cc1c(-c2nc(N)nc(Nc3ccccc3F)n2)oc2ccccc12 | u | x
CCCOC(=O)C1C2C=CC3(CN(c4ccc(Cl)c(F)c4)C(=O)C13)O2 (stereo not given) | -15% | >57
COc1cccc2c1C(=O)c1c(O)c3c(c(O)c1C2=O)C[C@](O)(C(C)=O)C[C@H]3O[C@@H]1C[C@H](N)[C@H](O)[C@H](C)O1 | 2%[3.58 µM] | >57
Nn1c(SC/C=C/c2ccccc2)nnc1-c1ccco1 | -3% | >57
CC12CCC(C(=O)N(c3ccccn3)c3ccccn3)(OC1=O)C2(C)C (stereo not given) | 6% | >57
Cc1cc(N(C)Cc2ccccc2)nc(-c2ccccc2)n1 | -26% | >57
CCn1c(COc2ccccc2C)nnc1SCC(=O)N1CCC(C)CC1 | -17% | >57
Cc1cccc(C)c1NC(=O)N1CCN(C2CCCCC2)CC1 | 3% | >57
CCc1ccc(-c2nnn(Cc3nc4ccccc4s3)n2)cc1 | u | >57
COc1cccc(-c2nc(CS(=O)CC(=O)NC3CCCC3)c(C)o2)c1 (stereo not given) | 4% | >57
COC(=O)C1C(=O)C2=C(CC1C)NC(=O)CC2c1cccc(C)c1 (stereo not given) | 14% | >57
O=C(O)CSCc1cccc2ccccc12 | 1%[8 µM] | >57
CCC(CC)C(=O)NCCc1cc2c(C)ccc(C)c2[nH]c1=O | -4% | x
CCc1nc2oc3ccccc3c(=O)c2c(=O)n1Cc1ccc(OC)cc1 | -1% | >57
Cc1ccc(C)c(NC2=CC(=O)CC(C)(C)C2)c1C#N | -9% | >57
COc1ccc(Cn2c(=O)oc3ccc(C)cc32)cc1OC | -10% | >57
Cc1ccc(S(=O)(=O)NC2CCCCC2)cc1 | -8% | x
CCCSC(=O)Cl | 0% | x

More results
structure | LT uptake inh | SmPrx2 inh
CN(Cc1ccco1)c1cc(-c2cccc(NS(C)(=O)=O)c2)ncn1 | -4% | >57
Cc1ccc(NC(=O)Cn2c(=O)n(Cc3ccco3)c(=N)c3c4c(sc32)COC(C)(C)C4)cc1 | -7% | x
O=C(NCc1ccco1)c1nc2nc(-c3cccs3)cc(C(F)(F)F)n2n1 | u | >57
COc1ccc(S(=O)(=O)N(C)CC(=O)Nc2ccccc2SC)cc1Cl | -16% | >57
Cc1ccc(-c2cc(C(=O)NCc3ccc4c(c3)OCO4)no2)cc1 | 22% | >57
C[C@@H](NC(=O)C1(N)CCCC1)C(=O)O | 1%[8 µM] | >57
COc1ccc2cc(C(c3nnnn3C(C)(C)C)N3CCSCC3)c(=O)[nH]c2c1 (stereo not given) | 13% | >57
CNC(=O)CN(c1ccc(OC)cc1)S(=O)(=O)c1ccc(F)cc1 | x | >57
C=CCn1c(C)cc(C(=O)CSc2nc3ccccc3o2)c1C | -22% | >57
CC(C)NS(=O)(=O)c1cccc2nsnc12 | -6% | >57
Cc1occc1-c1nnc(SCC(=O)N2CCN(c3ccccc3F)CC2)n1C | 6% | >57
CNS(=O)(=O)c1cc(O)c2c(S(=O)(=O)NC)cccc2c1 | 3% | >57
CC1(C)CC(n2c(NCCO)nc3c(c2=O)C2(CCCC2)Cc2ccccc2-3)CCO1 (stereo not given) | u | x
COc1ccccc1NC(=O)c1[nH]c(C)c(C(C)=O)c1C | -6% | >57
Cc1ccccc1-c1ccc2ncnc(N3CCOCC3)c2c1 | -6% | >57
O=C1C(Cl)=C(N2CCCCCC2)C(=O)N1c1ccccc1 | -14% | x
CC(C)CC(=O)N[C@H](C(=O)N[C@H](C(=O)N[C@@H](CC(C)C)[C@H](O)CC(=O)N[C@@H](C)C(=O)N[C@@H](CC(C)C)[C@H](O)CC(=O)O)C(C)C)C(C)C | 4%[3.58 µM] | >57
NC(=O)c1ccsc1NC(=O)CSc1ccccc1F | -5% | >57
Cc1nc(NCC2CCCO2)nc2c1C(=O)CC(C)C2 (stereo not given) | 2% | >57
CCOC(=O)c1sc(NC(=O)CSc2nnnn2-c2ccccc2)nc1C | -29% | >57
O=C(NCc1cccnc1)c1nnc(Cc2ccc(F)cc2)o1 | -3% | >57
Nn1cc(-c2ccccc2)nc1SCC(=O)N1CCN(S(=O)(=O)c2ccc(Cl)cc2)CC1 | 7% | >57
CC1CCCCN1S(=O)(=O)c1ccc(C(=O)Nc2nnc(-c3cccs3)o2)cc1 (stereo not given) | 4% | >57
CSc1ccc(Cl)c(C(=O)OCC(=O)NCc2ccco2)c1 | -5% | >57
O=C(CN1CCN(c2ccc(F)cc2)CC1)N1CCOCC1 | 5% | >57
CCOCCCNC(=O)Cn1cc2c(n1)CCCC2 | 15% | >57
CCN(CC)c1nc(N)nc(NS(=O)(=O)c2ccc(Cl)cc2)n1 | 18% | x
Cc1ccc(Cl)c(Nc2ccccc2C(=O)O)c1Cl | 1%[3.58 µM] | >57&>57
CC1=C(C(=O)Nc2ccccc2C)C2(CCCC2)C(C(N)=O)C(=O)N1 (stereo not given) | 14% | >57
COc1ccccc1OCC(=O)N(Cc1nc(-c2ccccc2)no1)C1CCCCC1 | -6% | >57
CC(C)N(C)C1CCN(C(=O)Nc2ccc(Cl)cc2)CC1 | x | >57
Cc1nnc(SCC(=O)NCC2CCCO2)n1-c1ccccc1 (stereo not given) | 10% | >57
CCOC(=O)N1CCC(c2[nH][nH]c(=O)c2C)CC1 | 0% | >57
C=CCn1c(=O)[nH]c2cc(C(=O)N3CCN(c4cc(C)ccc4C)CC3)ccc2c1=O | -1% | >57
COc1ccc(-c2[nH]ncc2-c2cnn(-c3ccccc3)c2)c(O)c1 | 13µM* | >57
CCCc1cc(=O)[nH]c(SCC(=O)c2cc(C)n(C(C)COC)c2C)n1 (stereo not given) | u | >57
Cc1ccc(C(=O)N2CCCC2)cc1S(=O)(=O)Nc1ccccc1 | u | >57
CC(C)[C@@H](CC(=O)N[C@@H]1CCCC[C@H]1C(=O)N[C@H](CC(=O)N[C@@H](CCC(=O)O)CC(=O)O)Cc1c[nH]c2ccccc12)NC(=O)C[C@H](Cc1ccccc1)NC(=O)[C@@H]1CCCC[C@H]1N | -5% | >57
CCOC(=O)C1CCN(CC(=O)Nc2c(C(=O)OC)n(C)c3cccc(C)c23)CC1 | x | >57
O=C(Nc1ccc(-c2cn3ccsc3n2)cc1)C1COc2ccccc2O1 (stereo not given) | u | >57
COc1cccc(OCc2nc3ccccc3[nH]2)c1 | -22% | >57
O=C(COc1ccc(-n2cnnn2)cc1)NC1CCCCC1 | -15% | >57
CC(C)C(=O)Nc1ccccc1N1CCN(S(C)(=O)=O)CC1 | u | x
COC(=O)N1CCC2(CC1)CN(C(=O)Nc1ccc(OC)cc1)C2 | 11% | >57
N#Cc1ccc(Oc2cccnc2)cc1C#N | 2% | x
O=C(Nc1cccc(F)c1)N1CC[C@@]2(CCCNC2)C1 | -10% | >57
CC1(C)S[C@@H]2[C@H](NC(=O)COc3ccccc3)C(=O)N2[C@H]1C(=O)O (tested in a mixture with another compound) | -5%[3.58 µM] | >26
CC1CCN(Cc2nc3c(c(=O)n(C)c(=O)n3C)n2CCN2CCOCC2)CC1 | -5% | >57
Cc1occc1C(=O)N1CCN(c2ccc(Cl)c(Cl)c2)CC1 | -11% | >57
O=C(CSc1nnc(-c2ccccc2Cl)n1Cc1ccco1)Nc1ccc2c(c1)OCCO2 | 9% | >57

In another format: results already given
Values in the order – LT uptake inh, SmPrx2 inh
> O=C(COc1ccc(-n2cnnn2)cc1)NC1CCCCC1
 : -15%, >57
> CC(C)C(=O)Nc1ccccc1N1CCN(S(C)(=O)=O)CC1
 : u, x
> COC(=O)N1CCC2(CC1)CN(C(=O)Nc1ccc(OC)cc1)C2
 : 11%, >57
> N#Cc1ccc(Oc2cccnc2)cc1C#N
 : 2%, x
> O=C(Nc1cccc(F)c1)N1CC[C@@]2(CCCNC2)C1
 : -10%, >57
> CC1(C)S[C@@H]2[C@H](NC(=O)COc3ccccc3)C(=O)N2[C@H]1C(=O)O (tested in a mixture with another compound)
 : -5%[3.58 µM], >26
> CC1CCN(Cc2nc3c(c(=O)n(C)c(=O)n3C)n2CCN2CCOCC2)CC1
 : -5%, >57

(continued)
structure | LT uptake inh | SmPrx2 inh
O=C(Cn1c(=O)oc2ccccc21)Nc1ccc(S(=O)(=O)N2CCCCC2)cc1 | x | >57
COc1ccc(OCc2cccc(C(=O)O)c2)cc1 | -8% | >57
CC(C)Cn1c(=O)c(C2=NS(=O)(=O)c3ccccc3N2)c(O)c2ccccc21 | -11% | x
CCC(C)NC(=O)C1CC(c2cccc(OC)c2)=NO1 (stereo not given) | 14% | >57
Cc1ccc(OCCNC(=O)c2ccco2)cc1C | 6% | x
O=C(NNC(=O)c1ccncc1)c1ccncc1 | 8%[8 µM] | >57
CCCCNC(=O)c1ccc(CS(=O)(=O)c2cccc(C(F)(F)F)c2)o1 | -10% | >57
Nc1nc(N)nc(-c2ccccc2)n1 | 9% | >57
COc1ccc(N2CCN(C(=O)C(C)(C)Oc3ccc(Cl)cc3)CC2)cc1 | u | >57
c1cncc([C@@H]2CCCCN2)c1 | -6% | >57&>57
COC(=O)C1=C(C)OC(N)=C(C#N)C1C1CCCCC1 (stereo not given) | 8% | >57
COc1ccc(NC(=O)C2CCCN2C(=O)NC2CCCCC2)cc1OC (stereo not given) | -15% | >57
Cn1c(COc2ccc(Cl)cc2)nc2ccccc2c1=O | 0% | >57
COc1ccc(C2CC(C(F)(F)F)n3nc(C(=O)Nc4ccc5c(c4)OCO5)cc3N2)cc1 (stereo not given) | u | >57
CCOC(=O)c1c(C)nc2ncccn12 | -5% | >57
Cc1ccc(NC(=O)c2nnn(CC(=O)Nc3ccccc3)c2N)cc1C | -5% | >57
Nc1nc(CSc2nc3ccccc3[nH]2)cs1 | -20% | x
O=C1C2C3C=CC(C3=C3CCCCC3)C2C(=O)N1c1ccccc1 (stereo not given) | x | >57
